Screens deposited in PubChem BioAssay by several laboratories.
RecA splice inh = Mtb RecA intein splicing inhibition; AID 2221; inhibition, %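 (about 9 µM by stock and volumes)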; 0.75% of 290,000 active; cell-free RecA intein splicing, fluorescence; in the data active = inhibition above about 30%; inconclusive = no clear call, values can overlap the other calls;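 also: 0% = vehicle wells and 100% = reference inhibitor control wells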
Target sequence (P9WHJ3 whole entry, looked up, canonical isoform): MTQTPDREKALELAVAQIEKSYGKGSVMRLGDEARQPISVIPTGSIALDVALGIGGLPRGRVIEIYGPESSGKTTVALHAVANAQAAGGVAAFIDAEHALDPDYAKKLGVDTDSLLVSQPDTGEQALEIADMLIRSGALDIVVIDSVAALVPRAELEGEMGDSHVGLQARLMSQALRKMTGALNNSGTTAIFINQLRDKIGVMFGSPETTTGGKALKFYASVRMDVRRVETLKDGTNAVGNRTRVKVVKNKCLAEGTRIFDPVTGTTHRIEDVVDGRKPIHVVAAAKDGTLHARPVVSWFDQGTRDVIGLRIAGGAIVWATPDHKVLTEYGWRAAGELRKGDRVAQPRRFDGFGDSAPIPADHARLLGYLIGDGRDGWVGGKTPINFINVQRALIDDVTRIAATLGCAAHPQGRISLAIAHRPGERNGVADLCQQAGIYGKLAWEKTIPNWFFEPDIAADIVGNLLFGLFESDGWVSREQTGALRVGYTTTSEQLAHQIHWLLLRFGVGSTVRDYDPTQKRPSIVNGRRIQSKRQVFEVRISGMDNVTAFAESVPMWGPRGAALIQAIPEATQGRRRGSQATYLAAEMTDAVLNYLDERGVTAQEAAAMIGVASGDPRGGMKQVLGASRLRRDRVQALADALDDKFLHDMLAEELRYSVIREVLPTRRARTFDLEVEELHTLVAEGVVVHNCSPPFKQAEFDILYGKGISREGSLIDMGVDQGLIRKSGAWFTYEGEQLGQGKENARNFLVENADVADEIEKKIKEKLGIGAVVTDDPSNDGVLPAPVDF
Mtb bLac sens = beta-lactam sensitization of Mtb H37Rv; inhibition, % at 25 µM; M. tuberculosis H37Rv growth with meropenem, percent inhibition; hits of this screen are not shown here; 0.27% of 330,000 active; AID 434955;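 active = about 74% or more and at least 40 points above the plate without the antibiotic, then above 30% in a dose series; inconclusive = first-round hits that could not be retested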;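 also: growth measured after seven days incubation then overnight dye step; 0% = bacteria only wells and 100% = bacteria with antibiotic; twin plates without the antibiotic show which effects depend on it; some results filed as inactive read as strong as hits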
Arbovirus inh = blocks arbovirus infection | arbovirus infection cell-based antiviral screen | inhibition, % at 10 µM | 0.37% of 200,000 active;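 active = inhibition from about 30%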;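 also: bluetongue infection of BSR cells; cell survival read as ATP light after 72 h; 0% = infected wells without compound and 100% = uninfected wells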
YopH inh = blocks Yersinia enterocolitica YopH tyrosine phosphatase | AID 898 | 0.16% of 140,000 active | inhibition, %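 (about 10 µM by stock and volumes)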 | fluorescence Ex485/Em525;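 active = inhibition of 50% or more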;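 also: controls were vehicle for no effect and minimum signal wells for full effect; inactives centre near -20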
Mtb growth = M. tuberculosis H37Rv growth inhibitors, H37Rv strain (AID 1626). M. tuberculosis H37Rv growth inhibition; higher % means a stronger effect. one-dose inhibition, % at 10 µM; IC50 in µM for titrated hits. 0.95% of 220,000 active;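 active = confirmed in a dose series; inconclusive = inhibition above 80% but not taken into the dose series; inactive = below 80% or under 30% at every dose of the series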;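 also: bacteria incubated seven days before Alamar blue readout; 0% = bacteria only wells and 100% = bacteria with antibiotic wells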
Arbovirus inh repeat = second read-out of Arbovirus inh, no call of its own (marks repeat the call); inhibition, %; measured here: 10K subset replicate screen; many hits read low in the repeat;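 first of two repeat runs on a subset; 0% = infected and 100% = uninfected wells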
Numbers without * were called inactive; ? = inconclusive; . = no result given.

SMILES	RecA splice inh	Mtb bLac sens	Arbovirus inh	YopH inh	Mtb growth	others
O=C(NCc1ccncc1)C(=O)Nc1nc(C23CC4CC(CC(C4)C2)C3)cs1	6.3	96	8	-28	.
Cc1ccccc1NC(=O)c1sc(Cl)nc1C	-3.6	-7	-10	-26	4%
Cc1c(NC(=O)CSc2ncn[nH]2)c(=O)n(-c2ccccc2)n1C	.	0	-3	-17	-12%
Cc1c(C(c2ccc(Cl)cc2Cl)c2c(O)c3ccccc3oc2=O)c(=O)n(-c2ccccc2)n1C (stereo unspecified)	5.1	-5	5	.	-2%
CN(CCOc1ccccc1)CC(O)COCc1ccccc1F (stereo unspecified)	-0.1	1	.	.	.
COC(=O)c1cc(-c2ccc(OC)cc2)nc2nc(SC)[nH]c(=O)c12	-1.2	2	.	.	.
O=C(Nc1ccccc1)Nc1nnc(Cc2ccc(F)cc2)s1	2.0	4	.	.	.
CCOC(=O)c1ccc(S(=O)(=O)Nc2cc(C(C)(C)C)no2)cc1	-4.7	-21	9	-13	4%
CSc1cccc(CN2CCC(CO)(Cc3cccc(C(F)(F)F)c3)CC2)c1	3.3	-5	-29	.	?
CNC(=O)CSc1nc(-c2ccccc2)c(-c2ccccc2)o1	0.3	6	-8	.	-4%
Cc1ccc(OCC(=O)OCC(=O)Nc2sccc2C(N)=O)cc1C	-1.7	0	0	-9	4%
CN1CCN(C(=O)c2cnn3c(C(F)(F)F)cc(-c4ccc5c(c4)OCO5)nc23)CC1	-3.4	-1	-9	-5	-8%
CCOC(=O)N1CCC(NC(=O)C2CCCN(S(=O)(=O)c3cccnc3)C2)CC1 (stereo unspecified)	0.0	-1	-6	-28	9%
O=C(CN1C(=O)COCC1=O)N1CCOCC1	-1.1	-1	8	1	-7%
COC(=O)c1ccccc1NC(=O)NC1CC1	-3.5	-7	-1	.	6%
COc1cc(-c2cc(C(=O)Nc3ccccc3N3CCOCC3)c3ccccc3n2)cc(OC)c1OC	2.1	0	9	.	-3%
CC(C)C[C@H](NC(=O)OC(C)(C)C)C(=O)N1CCC(C(=O)O)CC1	0.4	-4	6	-10	1%
CN(C)C=NC(=O)c1cccn1-c1ncc(C(F)(F)F)cc1Cl	4.5	97	5	.	.
O=C(CCCc1ccccc1)N1CCN(c2ccc([N+](=O)[O-])cc2)CC1	0.9	73	6	-49	7%
COc1cccc2cc(C(=O)NCCc3ccccc3)oc12	4.2	-10	.	.	.
CC(C)c1cc(C(=O)N/N=C/c2ccoc2)c(O)c(C(C)C)c1	2.3	-2	.	.	.
C/C(=N\Nc1ccc([N+](=O)[O-])cc1[N+](=O)[O-])c1cccnc1	-10	-1	.	.	.
CC1CCCCN1C(=O)c1cc2nc(-c3ccccc3)cc(-c3ccccc3)n2n1 (stereo unspecified)	14	16	-30	-2	15%
Cc1cc(C)nc(SCc2nnc(SCC(=O)NCc3ccco3)n2-c2ccccc2)n1	1.8	-5	-2	-41	-11%
CCOC(=O)Cc1csc(NC(=O)C(C)(C)C)n1	0.9	-6	4	-173	-23%
Cc1ccc(/C=C2\SC(=S)N(CCCC(=O)Nc3ccccn3)C2=O)cc1	-2.3	21	4	-33	2%
FC(F)(F)c1nc(-c2ccccc2)ncc1-c1nnnn1-c1ccccc1	8.7	-3	.	.	5%
O=c1[nH]c(CSc2ccccn2)nc2ccccc12	.	2	3	.	.
O=C1CC(C(=O)Nc2ccc(Cl)cc2[N+](=O)[O-])C2(CCCCC2)O1 (stereo unspecified)	-1.7	3	-5	-14	8%
Cc1nc(N2CCC(C)CC2)c2c(C)c(C(=O)O)sc2n1	-5.6	-1	5	-44	-5%
CCOC(=O)c1c(NC(=O)C2C3C=CC(C3)C2C(=O)O)sc2c1CCCC2 (stereo unspecified)	-0.3	-3	2	.	-8%
Cc1cccc(Nc2ncnc3onc(-c4ccc(F)cc4)c23)c1C	3.3	-5	.	.	.
O=[N+]([O-])c1cccnc1Sc1ccc(F)cc1	-13	-1	.	.	.
NC(=O)c1ccc(-n2nnnc2SCc2ccc(F)cc2)cc1	1.3	-5	6	-40	4%
CC(C)(C)C(=O)C(Cc1ccccc1Cl)n1cncn1 (stereo unspecified)	5.5	-6	10	-6	-3%
COC(=O)c1ccc(-n2c(C)cc(/C=N/Nc3nc(C)cc(=O)[nH]3)c2C)cc1	-2.6	23	.	.	6%
COc1cc2c(cc1NC(=O)Nc1cccc(C)c1)oc1ccccc12	-1.5	-4	2	13	12%
CCn1c(=O)cc(OCC(=O)N2CCCCCC2)c2ccccc21	4.8	-13	0	-7	-1%
Cc1ccc(NC(=S)N2CCC(c3ccc(C)cc3)C2)cc1 (stereo unspecified)	4.1	-3	9	.	12%
COC(=O)[C@@H]1CCCN1Cc1c(C(=O)N2CCOCC2)nc2c(C)cccn12	1.0	-2	-9	.	-6%

Molecules listed so far containing a thiophene ring, fused or not (3):
SMILES	RecA splice inh	Mtb bLac sens	Arbovirus inh	YopH inh	Mtb growth	others
Cc1ccc(OCC(=O)OCC(=O)Nc2sccc2C(N)=O)cc1C	-1.7	0	0	-9	4%
Cc1nc(N2CCC(C)CC2)c2c(C)c(C(=O)O)sc2n1	-5.6	-1	5	-44	-5%
CCOC(=O)c1c(NC(=O)C2C3C=CC(C3)C2C(=O)O)sc2c1CCCC2 (stereo unspecified)	-0.3	-3	2	.	-8%

Later entries
SMILES	RecA splice inh	Mtb bLac sens	Arbovirus inh	YopH inh	Mtb growth	others
CCOc1cccc(C2/C(=C(/O)c3ccc4c(c3)CC(C)O4)C(=O)C(=O)N2CCN2CCOCC2)c1 (stereo unspecified)	0.1	-1	.	.	.
COC(=O)c1ccc(C)c(NC(=O)c2ccc(Cn3cc([N+](=O)[O-])cn3)o2)c1	0.4	?	-2	-22	-2%
COc1ccc(/C=C\C(=O)NCc2ccc3c(c2)cc(C)n3C)cc1OC	-3.2	2	2	-12	17%
O=C(Oc1ccc(-c2nnco2)cc1)C1CCN(C(=O)c2ccc(F)cc2)CC1	6.3	-1	.	.	.
CCn1c(-c2ccc(C(C)(C)C)cc2)n[nH]c1=S	5.5	3	5	-15	-3%
COc1ccc2c(ccc[n+]2CC(=O)c2ccc(C)cc2)c1	-3.5	8	.	.	.
COc1ccccc1C(=O)C1CCCN(Cc2ccc3c(c2)OCCO3)C1 (stereo unspecified)	-0.5	3	.	.	-2%
O=C(CNC(=O)c1ccco1)OCN1C(=O)c2ccccc2C1=O	-1.6	-7	-1	-12	-7%
O=C(Cc1c[nH]c2ccccc12)NCc1ccc(Cl)cc1Cl	3.6	3	3	-17	15%
COC(=O)CNc1nc(C2CC2)nc2c1nnn2Cc1ccccc1Cl	-1.3	7	-3	-29	-2%
Cc1ccccc1N1CCN(C2CCCN(C(=O)c3noc4c3CCCC4)C2)CC1 (stereo unspecified)	2.1	13	.	.	.
COC(=O)c1cc(S(=O)(=O)NCC2CCN(Cc3ccc(Cl)cc3)CC2)cn1C	-2.8	2	.	.	.
COCCNC(=O)Cn1cc(C(=O)c2ccco2)c2ccccc21	-1.0	-4	1	.	-8%
COc1cccc2cc(C(=O)OC3CCN(C)CC3)c(=O)oc12	-3.0	7	-5	-28	-2%	Arbovirus inh repeat=-3
O=C(NC1CCCCC1)c1ccc(S(=O)(=O)c2ccccc2)cc1	0.6	2	1	.	0%
CC(=O)N/N=C(/c1ccccc1)C(O)c1ccccc1 (stereo unspecified)	2.1	-8	.	.	.
CCCc1cc(=O)n2[nH]c(C)cc2n1	-0.5	1	0	-43	-10%
CSc1ccccc1NC(=O)c1ccoc1C	0.4	-14	0	10	-7%
Cc1ccc(CCNC(=O)C2CCCN(S(=O)(=O)c3c(C)noc3C)C2)cc1 (stereo unspecified)	.	-10	3	-29	4%
O=C(c1cc(N2C(=O)C3C4CCC(C4)C3C2=O)ccc1Cl)N1CCN(c2ccc(F)cc2)CC1 (stereo unspecified)	0.3	1	4	-12	3%
CC(NC(=O)c1cc(COc2cccc(C(F)(F)F)c2)on1)c1nccs1 (stereo unspecified)	1.5	5	.	.	.
CC(=O)N[C@H]1C(O)O[C@H](CO)[C@@H](O)[C@@H]1O (stereo partly specified)	-3.6	-2	.	.	.
CC(=O)c1c(O)n(C)c(=S)n(-c2ccccc2)c1=O	-0.2	7	7	-9	-4%
Clc1ccccc1OCc1nc(-c2ccncc2)no1	.	-8	-19	-7	13%
COc1cccc(NC(=O)Cc2c(O)c3ccccc3[nH]c2=O)c1	-0.3	-3	-1	-36	2%
CC(=O)CSc1nnc(-c2ccc(S(=O)(=O)N3CCCC3)cc2)n1C	0.4	-4	.	.	.
NC(=S)NNc1ccnc2cc(Cl)ccc12	4.2	78	-9	.	?
Cc1cccc(N2CCN(Cc3ccc(Br)o3)CC2)c1C	6.2	0	.	.	.
O=C(Cn1c(=S)nc2ccccn21)N1CCc2ccccc2C1	2.6	-2	6	-35	5%
Cc1cc(C)n(CCCN2CCC(C(=O)Nc3cccc(-c4cccc(F)c4)c3)CC2)n1	-1.4	-6	.	.	.
CN(CC(=O)Nc1ccc(Cl)cc1)C(=O)c1cc(-c2cccs2)nn1-c1ccccc1	-3.3	2	.	.	.
CCOC(=O)Cc1nc2nc(C)cc(C)n2n1	-0.6	3	-1	.	0%
Cc1ccc(C)c(Cn2c(O)c(N=NC(=S)Nc3ccccc3F)c3ccccc32)c1	-3.3	17	-10	.	-6%
CN(C(=O)CSc1nc(N)c2c3c(sc2n1)CSC(C)(C)C3)c1ccccc1	-0.6	70	-21	-20	.
COc1ccc(-n2c(C)nnc2SCC(=O)Nc2ccccc2F)cc1	0.4	2	.	.	.
COc1ccc(N=C2NC(=O)C(CC(=O)NCCc3ccc(OC)c(OC)c3)S2)cc1 (stereo unspecified)	0.1	-10	0	.	-1%
Cc1nnc2sc(-c3ccccn3)nn12	-1.8	-3	6	-24	0%
CCOc1cccc(C(=O)NC(=S)Nc2ccc(N3CCCC3)cc2)c1	1.0	-7	-6	-9	2%
CNc1ccc(/C=C2\COc3ccccc3C2=O)cc1[N+](=O)[O-]	8.7	7	-7	-20	11%
O=C(NCc1ccco1)/C(=C/c1ccccc1)NC(=O)c1ccco1	-2.3	6	.	.	.
CCOc1ccc(NC(=O)C2CCCN(c3nn4c(=O)cc(C)nc4s3)C2)cc1 (stereo unspecified)	2.3	-1	.	.	.
Cc1c(-n2c(SCC(N)=O)nc3ccccc3c2=O)c(=O)n(-c2ccccc2)n1C	2.1	0	-2	.	1%
Nc1nnc(SCC(=O)NC2CCCCCC2)s1	-3.1	1	.	.	.
Cn1cccc1/C=C1\C(=O)NC(=O)N(Cc2ccccc2Cl)C1=O	.	.	-4	.	11%
Cc1ccc(NC(=O)CCSc2nc(C)cc(C)n2)cc1	-4.0	-6	4	-21	-7%
CCCCCC(=O)Nc1ccc(-c2csc(N)n2)cc1	2.1	31	-11	.	?
CC1=NN(CCC#N)C(=O)/C1=C/c1ccc(N(C)C)cc1	48*	-4	14	.	5%
CCOc1ccc(NC(=O)CN(C)C(=O)c2ccc(OCC3CCCO3)cc2)cc1OCC (stereo unspecified)	-1.8	10	.	.	.
COC(=O)COc1ccc(/C=N/NS(=O)(=O)c2ccccc2)cc1	0.1	12	.	.	.
O=C1c2ccc([N+](=O)[O-])cc2NC(c2ccco2)N1/N=C/c1ccco1 (stereo unspecified)	-0.9	-1	.	.	0%
O=C(COc1ccccc1)NC1CCCCCCC1	-1.1	8	.	.	.
COc1ccc(-n2nc(C(=O)NCC(=O)NCCCN3CCOCC3)c3ccccc3c2=O)cc1	0.6	0	.	.	.
CC1CCC(C(C)C)C(OC(=O)C[n+]2cccc(C(N)=O)c2)C1 (stereo unspecified)	-0.2	-15	3	13	-6%

A section from the list above, for reference:
SMILES	RecA splice inh	Mtb bLac sens	Arbovirus inh	YopH inh	Mtb growth	others
CC1=NN(CCC#N)C(=O)/C1=C/c1ccc(N(C)C)cc1	48*	-4	14	.	5%
CCOc1ccc(NC(=O)CN(C)C(=O)c2ccc(OCC3CCCO3)cc2)cc1OCC (stereo unspecified)	-1.8	10	.	.	.
COC(=O)COc1ccc(/C=N/NS(=O)(=O)c2ccccc2)cc1	0.1	12	.	.	.
O=C1c2ccc([N+](=O)[O-])cc2NC(c2ccco2)N1/N=C/c1ccco1 (stereo unspecified)	-0.9	-1	.	.	0%
O=C(COc1ccccc1)NC1CCCCCCC1	-1.1	8	.	.	.
COc1ccc(-n2nc(C(=O)NCC(=O)NCCCN3CCOCC3)c3ccccc3c2=O)cc1	0.6	0	.	.	.
CC1CCC(C(C)C)C(OC(=O)C[n+]2cccc(C(N)=O)c2)C1 (stereo unspecified)	-0.2	-15	3	13	-6%

Looked up one by one from above (2):
SMILES	RecA splice inh	Mtb bLac sens	Arbovirus inh	YopH inh	Mtb growth	others
Cc1ccc(NC(=O)CCSc2nc(C)cc(C)n2)cc1	-4.0	-6	4	-21	-7%
COC(=O)COc1ccc(/C=N/NS(=O)(=O)c2ccccc2)cc1	0.1	12	.	.	.

Some of the compounds tested, so the mix of outcomes need not match the whole.
